# Beta2AR agonist: agonists of human beta-2 adrenergic receptor inducing internalization | Am2.2-beta2AR cells, FAP receptor internalization, flow cytometry; reference of the scale not given here | actives 0.43% (n = 340,000) | response, % (no concentration beside the values);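 active = response above a set limit, near 3 SD of response in nonfluorescent compounds, cut at about 42% in these data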;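 note: stock transfer was 100 nL into about 11 µL; a reference agonist was the positive control; negative values mostly stem from fluorescent compounds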
# ALR inh: inhibitors of human sulfhydryl oxidase ALR; P55789; purified ALR, DTT oxidation, H2O2 HRP-luminol luminescence; inhibition, % (test concentration not listed); actives 3.8% (n = 290,000); AID 485317;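 active = mean and each replicate at 75% or more; inconclusive = only one of the two met; inactive = neither met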;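 note: stock transfer was 7.5 nL into about 7.5 µL; 0% = neutral wells and 100% = wells with inactivated enzyme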
# Calb FLC: affects C. albicans growth with fluconazole; C. albicans CaCi-2 (fluconazole-resistant clinical isolate) + fluconazole, Alamar Blue growth, 48 h; growth inhibition, % (no concentration beside the values); actives 0.57% (n = 300,000); AID 1979;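 active = most replicates above 75%; inconclusive = exactly half above 75%; inactive = most below 75%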;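 note: all wells also contain fluconazole at 8 µg/ml as a sub-toxic cotreatment; 0% = median of DMSO wells and 100% = median of geldanamycin control wells; wells of about 8 µL received 7.5 nL stock; the first replicate is given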
# HNF4A DNA FP: change in binding of human HNF4 alpha to DNA | P41235 | HNF4a-FITC DNA binding, fluorescence polarization, 1 h | activity change, % at 10 µM | actives 0.3% (n = 360,000); in the data active = activity change above about 30%, passing the limit was not always enough;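 note: controls were the assay level and a saturating level of protein; the project sought stronger binding though the title names inhibitors; some compounds called inactive have numbers as strong as hits; positive values seem to mean higher polarization but the record does not say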
# RanGTP-Imp inh: inhibitors of RanGTP-importin-beta interaction, primary screen, biochemical, FRET, CFP-Ran, YFP-importin-beta, homogeneous. actives 1.1% (n = 300,000). AID 2216. cell-free CFP-Ran/YFP-importin-beta FRET ratio. inhibition, % (no concentration beside the values);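 active = most replicates above 15%; inconclusive = exactly half above 15%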;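 note: 0% = DMSO wells and 100% = Ran loaded with GDP instead of GTP; wells of about 40 µL received 100 nL stock; the first replicate is given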
# LANA-H2A inh: blocks KSHV LANA binding to histone H2A/H2B | Q9QR71 | inhibition, % (no concentration beside the values) | cell-free LANA-H2A/H2B peptide, fluorescence polarization | actives 0.6% (n = 320,000); in the data active = inhibition mostly above about 10%, no sharp cut-off; inactive = mostly below about 6.7%;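 note: stock transfer was 7.5 nL into about 10 µL; 0% = median of vehicle wells and 100% = median of positive control wells; one replicate is shown; the record names a cut of 25% in any replicate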
# Target sequence (Q9QR71 whole entry, looked up): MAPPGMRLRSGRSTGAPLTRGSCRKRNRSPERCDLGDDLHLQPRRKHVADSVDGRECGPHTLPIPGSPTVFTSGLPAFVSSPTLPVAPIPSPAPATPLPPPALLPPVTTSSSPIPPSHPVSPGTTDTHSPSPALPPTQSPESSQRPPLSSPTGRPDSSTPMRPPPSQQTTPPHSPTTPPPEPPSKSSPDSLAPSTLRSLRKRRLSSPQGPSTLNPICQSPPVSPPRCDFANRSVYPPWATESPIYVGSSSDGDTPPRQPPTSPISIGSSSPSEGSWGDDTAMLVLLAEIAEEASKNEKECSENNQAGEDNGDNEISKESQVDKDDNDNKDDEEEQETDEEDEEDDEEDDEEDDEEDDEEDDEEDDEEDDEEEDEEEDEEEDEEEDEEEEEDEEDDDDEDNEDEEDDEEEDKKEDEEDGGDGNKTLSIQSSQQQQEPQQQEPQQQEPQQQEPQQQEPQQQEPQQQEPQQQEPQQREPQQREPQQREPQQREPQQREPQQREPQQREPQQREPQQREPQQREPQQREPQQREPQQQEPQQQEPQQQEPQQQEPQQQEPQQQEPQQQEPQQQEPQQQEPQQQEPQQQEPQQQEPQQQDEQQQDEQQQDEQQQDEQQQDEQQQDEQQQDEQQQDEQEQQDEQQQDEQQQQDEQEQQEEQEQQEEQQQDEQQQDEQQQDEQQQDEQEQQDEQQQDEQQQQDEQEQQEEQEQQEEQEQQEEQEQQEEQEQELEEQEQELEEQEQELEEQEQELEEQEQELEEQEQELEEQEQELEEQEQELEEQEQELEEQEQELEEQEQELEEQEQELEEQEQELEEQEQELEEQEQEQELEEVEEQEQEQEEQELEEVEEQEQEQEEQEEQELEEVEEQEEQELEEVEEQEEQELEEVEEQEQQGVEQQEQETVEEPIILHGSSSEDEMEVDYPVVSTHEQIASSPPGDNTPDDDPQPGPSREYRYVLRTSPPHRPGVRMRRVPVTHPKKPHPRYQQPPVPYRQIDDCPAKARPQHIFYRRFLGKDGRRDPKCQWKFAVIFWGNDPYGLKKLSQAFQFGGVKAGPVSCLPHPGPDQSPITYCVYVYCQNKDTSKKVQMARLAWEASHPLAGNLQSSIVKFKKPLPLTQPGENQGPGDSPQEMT
# Vif TR-FRET: HIV-1 Vif–A3G interaction blockers – biochemical, TR-FRET, GST-Vif 1-94, biotin-A3G peptide, dose response retest, primary screen (AID 1117319); TR-FRET GST-Vif / biotin-A3G peptide binding; higher % means a stronger effect; test concentration not given here; strong numbers were not always called active; actives 0.57% (n = 260,000); inhibition, %, or IC50 in µM where a hit was titrated;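 active = above the screen mean plus three standard deviations and confirmed in dose response; inconclusive = results disagree or hit not tested in dose response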;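 note: Vif residues 1-94 fused to GST binding biotinylated APOBEC3G peptide 110-148; 0% = full assay without inhibitor and 100% = GST in place of GST-Vif; retest series ran down from 100 µM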
# * hit, by the source's call; ? = inconclusive; / = no result given.
no.	SMILES	Calb FLC	HNF4A DNA FP	ALR inh	RanGTP-Imp inh	Beta2AR agonist	Vif TR-FRET	LANA-H2A inh
1	COc1ccc(CCNC(=O)CC(Cc2ccc(C)cc2)C(=O)O)cc1OC (centres undefined)	1.2	6.6	3.6	-2.2	5.2	-5.3%	-4.6
2	CCN1C(=O)[C@H]2[C@@H](c3ccc(SC4CCCCC4)c(OC)c3)N[C@@](Cc3ccccc3)(C(=O)OC)[C@H]2C1=O	17.9	-2.4	-5.7	-1.3	9.0	/	2.5
3	CC1CCN(c2ccc3c(c2)S(=O)(=O)c2cccc(C(=O)NCc4cccc(F)c4)c2C3=O)CC1	/	-14.3	-2.7	/	-0.7	/	1.1
4	CCOC(=O)c1cnc(SCC(=O)NCc2cccs2)nc1N	13.0	0.5	-4.6	0.3	-11.8	12.5%	3.0
5	Clc1ccc(-c2cc3ccccc3[nH]2)cc1	12.1	0.5	1.2	0.7	3.7	-0.4%	0.1
6	Cc1ccc(-c2cc(C(=O)Nc3ccncc3)c3ccccc3n2)cc1	8.0	0.7	/	-4.0	2.3	-17.9%	/
7	CC1CCN(C(=O)COC(=O)[C@H](C)NS(=O)(=O)/C=C/c2ccccc2)CC1	-6.6	-1.6	-0.1	1.2	-1.2	-0.2%	1.6
8	CC(C)CCOP(=O)(c1ccc(N(C)C)cc1)C(O)c1ccccc1 (centres undefined)	11.0	-3.1	1.7	2.5	2.5	/	-0.6
9	Cc1nc(Cl)c(Cl)n1CCOc1ccccc1	8.3	-0.3	-0.4	4.9	1.9	1.0%	-2.2
10	CN(C)S(=O)(=O)c1ccc(Cl)c(NC(=O)COC(=O)/C=C/c2ccc3ccccc3n2)c1	/	0.0	2.6	/	2.6	-11.7%	-1.5
11	C=CCCC(=O)N1CCCC(Cc2cccc(Cl)c2)(C(=O)OCC)C1 (centres undefined)	5.8	-4.7	/	4.4	0.9	-3.4%	-8.1
12	C[n+]1c2n(c3ccccc31)N=C(c1ccc(Br)cc1)CS2	21.4	0.8	98.7*	-2.2	-23.4	7.0%	-2.0
13	CCOC(=O)C1CCN(C(=O)Nc2cc(Cl)cc(Cl)c2)CC1	8.9	0.3	/	-2.8	7.5	-11.2%	2.4
14	CN(C)S(=O)(=O)c1cccc(-c2nnc(SCC(=O)NCCCCCC(=O)O)n2-c2ccc(F)cc2)c1	3.5	-1.5	-2.6	-2.4	10.2	/	0.6
15	O=C(CON=C1c2ccccc2-c2ccccc21)NC12CC3CC(CC(C3)C1)C2	-12.4	1.5	-11.6	-0.4	-2.8	2.4%	-0.6
16	O=C(NC1CCCC1)C(c1cccnc1)N(C(=O)c1csnn1)c1ccccc1 (centres undefined)	-5.2	-1.1	-5.7	2.9	-7.3	1.7%	3.3
17	COc1ccc2c(c1)OC(=O)CC2c1cc(OC)c(OC)c(OC)c1 (centres undefined)	/	2.3	/	/	-2.3	2.4%	/
18	CCCCN(C)CCCNC(=O)c1cn(CC)c2ccc(S(=O)(=O)N3CCc4ccccc4C3)cc2c1=O	-3.1	3.8	-1.2	1.0	10.7	-4.5%	2.3
19	Cc1ccc(NC(=O)CCNS(=O)(=O)c2ccc(Br)cc2)cc1S(=O)(=O)N1CCOCC1	-6.7	2.6	-1.0	/	0.4	0.3%	3.4
20	O=C(CCSc1nnc(-c2ccco2)o1)Nc1ccc(F)cc1	20.0	-2.5	-16.4	-0.9	0.6	/	-4.2
21	CNC(=S)N(CCCN(C)C)Cc1cc2cc3c(cc2[nH]c1=O)OCCO3	9.5	-1.1	-24.9	-2.7	-3.6	/	2.8
22	Cc1c(C(=O)N2CCOCC2)c(S(=O)(=O)N2CCN(c3ccc(Cl)cc3)CC2)c(C)n1C	0.0	-0.2	35.7	7.0	-4.4	-11.5%	2.4
23	C#CCOc1ccc(Cl)cc1/C=N/O	14.2	-1.8	1.5	2.3	7.7	11.0%	1.5
24	Cc1cccc(NS(=O)(=O)c2ccc(C(=O)N3CCC3)cc2)c1C	-9.8	1.4	-2.2	-2.4	3.2	1.6%	-4.5
25	O=C(Nc1ccc2nn(-c3ccccc3)nc2c1)c1ccco1	-5.7	2.6	-0.7	-0.6	-10.0	-18.4%	-0.7
26	CCOc1cc(CNc2ccc3c(c2)OCCO3)cc(Br)c1OCC(N)=O	-5.2	1.8	46.9	9.9	-4.5	18.4%	-20.8
27	Cc1cc(C)nc(SCC(=O)NCc2ccco2)n1	1.9	-2.1	1.2	/	3.3	12.5%	3.9
28	O=[N+]([O-])c1ccc(N/N=C/c2ccc(O)c(O)c2O)c(S(=O)(=O)N2CCOCC2)c1	99.9*	-2.0	/	-3.7	-4.5	1.14µM*	/
29	Cc1ccc(S(=O)(=O)N2CCOCC2)cc1NC(=O)c1cc(-c2ccccn2)nc2ccccc12	10.9	4.1	-2.3	?	0.3	-5.1%	-1.2
30	CC(C)NC(=O)CCCn1cc([N+](=O)[O-])cn1	-9.8	-3.9	21.9	-1.2	-4.8	-0.6%	-2.2
31	COc1cc(C2OC(=O)C3C(c4ccc(OC(C)=O)c(OC)c4)OC(=O)C23)ccc1OC(C)=O (centres undefined)	1.8	-1.3	-5.1	6.4	5.2	/	3.5
32	CC(C)N1C(=O)CCC1C(=O)N1CCN(c2ccccn2)CC1 (centres undefined)	0.7	-2.0	0.6	-1.6	9.8	1.5%	1.2
33	O=[N+]([O-])/C=C1/CCCCCN1	9.2	-0.6	4.2	0.4	5.5	/	-10.9
34	CCn1cc(Cl)c(C(=O)Nc2nccs2)n1	0.7	-2.1	/	0.1	-11.6	-6.0%	/
35	Cc1ccc(S(=O)(=O)N2CCCC(C(=O)NCCC3=CCCCC3)C2)cc1 (centres undefined)	-5.4	0.8	-3.2	5.1	5.8	-1.2%	-4.5
36	CC(C)c1ccccc1NC(=O)COc1ccc2c(=O)c(Oc3ccc4ccccc4c3)coc2c1	14.5	/	-83.3	-6.0	/	4.5%	5.1
37	COc1ccc(-c2cn(Cc3cccc(OC)c3)nn2)cc1	-4.9	0.9	-1.4	1.7	-3.0	/	1.9
38	Cc1cccn2c(=O)c3cc(C(=O)NCc4ccco4)c(=N)n(CCc4ccccc4)c3nc12	/	-11.6	/	/	17.2	34µM*	/
39	C=C(Cl)COc1cc(C)cc2oc(=O)cc(CC)c12	2.8	0.8	-10.7	2.5	6.1	0.7%	-0.8
40	Cc1ccc(C)n1-c1ccccc1N	19.2	/	-7.0	-13.8	/	/	0.8
41	O=C(O)c1ccccc1C(=O)Nc1ccc(S(=O)(=O)NC2CCCCC2)cc1	-41.5	4.3	13.9	1.6	-5.2	-6.4%	1.3
42	COc1ccc(C(C)NC(=O)c2ccccc2Cl)cc1OC (centres undefined)	2.7	1.6	-3.1	-0.6	-1.8	-11.3%	-2.1
43	Cc1nc(-c2ccc(F)cc2)c(CC(=O)Nc2cccc(S(=O)(=O)N3CCOCC3)c2)s1	-7.8	-0.1	/	-0.6	4.1	-0.5%	-1.2
44	COCc1cc(N2CCCC2)nc(-c2ccccc2)n1	-9.0	-1.7	-2.1	2.0	-7.9	20.6%	0.5
45	COc1ccc(CNC(=O)CN(C(=O)c2snc(C(N)=O)c2N)c2ccccc2F)cc1	4.6	-0.5	17.3	-3.9	7.4	/	3.5
46	CCC(=O)Nc1ccc2c(c1)Cc1cc(NC(=O)CC)ccc1-2	3.5	-0.2	-2.4	-1.4	-7.9	0.3%	0.4
47	CC(C)(C)C1CCc2c(sc(NC(=O)CSc3nnc(-c4ccccc4)o3)c2C#N)C1 (centres undefined)	-10.0	-5.2	-1.4	-1.6	7.0	?	2.4
48	Cc1ccc(NC(=O)CN(C)C(=O)Cc2ccc(Cl)cc2Cl)cc1	-9.0	3.6	-5.7	1.9	13.0	-0.4%	-6.9

# Pulled by compound from the list above, two records:
no.	SMILES	Calb FLC	HNF4A DNA FP	ALR inh	RanGTP-Imp inh	Beta2AR agonist	Vif TR-FRET	LANA-H2A inh
47	CC(C)(C)C1CCc2c(sc(NC(=O)CSc3nnc(-c4ccccc4)o3)c2C#N)C1 (centres undefined)	-10.0	-5.2	-1.4	-1.6	7.0	?	2.4
45	COc1ccc(CNC(=O)CN(C(=O)c2snc(C(N)=O)c2N)c2ccccc2F)cc1	4.6	-0.5	17.3	-3.9	7.4	/	3.5

# The listing continues:
no.	SMILES	Calb FLC	HNF4A DNA FP	ALR inh	RanGTP-Imp inh	Beta2AR agonist	Vif TR-FRET	LANA-H2A inh
49	Cc1cc(N2CCCCC2)nc(SCC(=O)c2ccccc2)n1	-1.7	-1.6	1.4	?	-6.1	-3.1%	0.7
50	CC1=C(C(=O)OCCNC(=O)c2ccccc2O)C(c2ccccc2[N+](=O)[O-])C(C(=O)OCC2CCCO2)=C(C)N1 (centres undefined)	11.7	-7.8	-30.1	5.5	-10.9	18.6%	-5.6
51	Cc1ccc(NC(=O)c2cc(N3C(=O)CCC3=O)ccc2N2CCCCC2)cc1	-3.1	-0.5	-1.1	0.9	4.0	-7.1%	-5.7
52	O=C(NNC(=S)Nc1ccc(F)cc1)[C@H]1C[C@@H]1c1ccccc1	-0.8	-1.3	43.6	2.0	4.0	1.4%	-2.2
53	CC(C)C[C@H](NC(=O)c1cc2cc(Cl)ccc2n1C)C(=O)N1CCC[C@H]1C(=O)O	-2.7	5.4	/	-0.8	-2.9	/	-7.4
54	S=C(Nc1cccnc1)NC1CCCC1	-6.4	2.5	/	5.3	1.3	/	1.8
55	COc1ccc(NC(=O)CSc2nc3[nH]c(=O)[nH]c(=O)c3s2)cc1OC	-6.1	-1.6	98.8*	7.8	-7.5	3.7%	-5.0

# Molecules listed so far that contain an aryl methoxy group:
no.	SMILES	Calb FLC	HNF4A DNA FP	ALR inh	RanGTP-Imp inh	Beta2AR agonist	Vif TR-FRET	LANA-H2A inh
1	COc1ccc(CCNC(=O)CC(Cc2ccc(C)cc2)C(=O)O)cc1OC (centres undefined)	1.2	6.6	3.6	-2.2	5.2	-5.3%	-4.6
2	CCN1C(=O)[C@H]2[C@@H](c3ccc(SC4CCCCC4)c(OC)c3)N[C@@](Cc3ccccc3)(C(=O)OC)[C@H]2C1=O	17.9	-2.4	-5.7	-1.3	9.0	/	2.5
17	COc1ccc2c(c1)OC(=O)CC2c1cc(OC)c(OC)c(OC)c1 (centres undefined)	/	2.3	/	/	-2.3	2.4%	/
31	COc1cc(C2OC(=O)C3C(c4ccc(OC(C)=O)c(OC)c4)OC(=O)C23)ccc1OC(C)=O (centres undefined)	1.8	-1.3	-5.1	6.4	5.2	/	3.5
37	COc1ccc(-c2cn(Cc3cccc(OC)c3)nn2)cc1	-4.9	0.9	-1.4	1.7	-3.0	/	1.9
42	COc1ccc(C(C)NC(=O)c2ccccc2Cl)cc1OC (centres undefined)	2.7	1.6	-3.1	-0.6	-1.8	-11.3%	-2.1
45	COc1ccc(CNC(=O)CN(C(=O)c2snc(C(N)=O)c2N)c2ccccc2F)cc1	4.6	-0.5	17.3	-3.9	7.4	/	3.5
55	COc1ccc(NC(=O)CSc2nc3[nH]c(=O)[nH]c(=O)c3s2)cc1OC	-6.1	-1.6	98.8*	7.8	-7.5	3.7%	-5.0
